# Assay outcomes as filed in PubChem.
# Vaccinia stage – blocks a specific stage of Vaccinia orthopoxvirus infection; 89,000 tested, 0.01% active; activity change (mCherry), % (no concentration beside the values); AID 1053133; Vaccinia-infected cells, mCherry/Venus stage reporter fluorescence; stronger effect = lower value; some inactives read as strong as hits;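 active means mCherry past -33% and 40 or more points under the early reporter, replicates agreeing; inconclusive means past -33% without that gap or agreement; tested in A549 cells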;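 further: scaled between vehicle wells and reference inhibitor wells; 23 nL library stock went into each well; one replicate is shown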
# Vaccinia stage Venus – also measured in Vaccinia stage; calls as there; activity change (Venus), %; measured here: Venus reporter, other viral stage;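 negative = less Venus signal; first of two replicates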
# * marks the source's active call; other numbers are inactive results; ? = inconclusive; / = not tested or not shown.
SMILES,Vaccinia stage,Vaccinia stage Venus
COc1ccc2c3c(n(C)c2c1)[C@@H](CO)N(S(C)(=O)=O)CC31CCN(C(=O)C2CCC2)CC1,-2.2,-12.1
O=C(C1CCCC1)N1CC[C@@H]2[C@H](CO)Nc3ccc(-c4cccc(F)c4)cc3[C@@H]21,?,/
C[C@@H]1CN([C@@H](C)CO)C(=O)c2cccc(NC(=O)C3CCCCC3)c2O[C@@H]1CN(C)Cc1ccc2c(c1)OCO2,-0.5,-2.3
C[C@@H]1CN([C@H](C)CO)C(=O)c2cccc(NC(=O)Nc3cccc4ccccc34)c2O[C@@H]1CN(C)C(=O)Nc1ccc(C(F)(F)F)cc1,?,/
O=C1CN(S(=O)(=O)c2ccccc2)C[C@H]2[C@@H](c3ccc(Br)cc3)[C@@H](CO)N12,1.3,-15.0
C/C=C/c1ccc([C@@H]2[C@@H](CO)N3C(=O)CN(C(=O)Nc4ccc(OC)cc4)C[C@@H]23)cc1,-34.2,-19.9
O=C(C1CCCC1)N1CC(=O)N2[C@@H](CO)[C@@H](c3ccc(C#CCc4ccccc4)cc3)[C@@H]2C1,-6.5,-8.9
O=C(C1CCCC1)N1CC2(C1)[C@H](c1ccccc1)[C@H](CO)N2Cc1ccc(Cl)cc1,?,/
C[C@@H]1CN([C@@H](C)CO)C(=O)c2cccc(NS(=O)(=O)c3ccc(Cl)cc3)c2O[C@@H]1CN(C)S(=O)(=O)c1cccs1,-9.8,-8.1
C[C@@H]1CN([C@@H](C)CO)C(=O)c2cc(NC(=O)Nc3ccc4c(c3)OCO4)ccc2O[C@@H](C)CCCCO[C@@H]1CN(C)C(=O)Nc1ccccc1,17.7,5.2
CO[C@H]1CN(C)C(=O)c2ccc(NS(=O)(=O)c3ccccc3)cc2OC[C@@H](C)NC[C@H]1C,-7.7,-3.8
COCC(=O)Nc1ccc2c(c1)C(=O)N(C)C[C@@H](OC)[C@H](C)CN(Cc1cncnc1)[C@H](C)CO2,0.3,-1.9
COc1ccc(S(=O)(=O)N2CCCCN3[C@H](CO)[C@@H](c4ccc(C#CC5CC5)cc4)[C@@H]3C2)cc1,-25.2,-24.9
O=C(C[C@@H]1C[C@H]2c3cc(NC(=O)C4CCOCC4)ccc3O[C@H]2[C@@H](CO)O1)NCc1ccc(Oc2ccccc2)cc1,-6.5,-1.9
Cn1cnc(S(=O)(=O)N[C@@H]2CC[C@@H](CC(=O)NCC3CCCCC3)O[C@H]2CO)c1,8.1,7.1
C[C@H](CO)N1C[C@H](C)[C@@H](CN(C)CC2CCCCC2)Oc2c(NC(=O)C3CCCCC3)cccc2C1=O,-18.5,-11.4
COc1cccc(CN2C[C@@H]3N[C@H](C2)C3c2ccc(-c3ccncc3)cc2)c1 (stereo partly specified),?,-24.2
C[C@@H]1CN([C@H](C)CO)S(=O)(=O)c2ccc(-c3cccnc3)cc2O[C@@H]1CN(C)Cc1ccccn1,11.9,2.7
COCCNC(=O)C[C@H]1CC[C@@H]2[C@H](COc3ccc(NC(=O)Nc4ccccc4)cc3C(=O)N2C)O1,4.9,6.5
COc1ccc2c3c(n(C)c2c1)[C@H](CO)N(C(=O)C1CC1)CC31CN(C(=O)Nc2cccc(F)c2)C1,-8.2,-1.5
CCCNC(=O)C[C@H]1CC[C@H]2[C@H](COc3ccc(NC(=O)c4cscn4)cc3C(=O)N2C)O1,11.6,5.9
C[C@H]1CN([C@@H](C)CO)C(=O)c2cc(NC(=O)Nc3ccc(F)cc3)ccc2O[C@H]1CN(C)Cc1ccc(C(=O)O)cc1,15.1,5.3
C[C@@H]1CN([C@@H](C)CO)S(=O)(=O)c2ccc(Br)cc2O[C@H]1CN(C)C(=O)Nc1ccc2c(c1)OCO2,-5.1,-7.9
C[C@@H]1CN([C@@H](C)CO)C(=O)c2cc(NC(=O)Cc3ccccc3)ccc2O[C@H]1CN(C)Cc1ccc2c(c1)OCO2,-16.1,-11.6
C[C@@H]1CN([C@H](C)CO)C(=O)Cc2cc(NS(=O)(=O)c3ccc(Cl)cc3)ccc2O[C@H]1CN(C)Cc1ccc2c(c1)OCO2,-16.6,-12.1
C[C@@H]1CN([C@@H](C)CO)S(=O)(=O)c2ccc(-c3cccnc3)cc2O[C@@H]1CN(C)C,13.4,5.3
Cc1ccc(-c2ccc3c(c2)O[C@@H](CN(C)C(=O)C2CC2)[C@@H](C)CN([C@@H](C)CO)S3(=O)=O)cc1,-18.1,-20.1
O=C(C[C@@H]1CC[C@H]2[C@@H](COC[C@H](O)CN2Cc2ccc(F)cc2)O1)NCCc1ccccc1,-5.7,-10.1
C[C@@H]1CN([C@@H](C)CO)C(=O)c2cccc(NC(=O)Nc3ccc4c(c3)OCO4)c2O[C@H]1CN(C)CC1CCCCC1,-9.2,-6.3
CC(C)NC(=O)N(C)C[C@@H]1Oc2cc(C3=CCCCC3)ccc2S(=O)(=O)N([C@H](C)CO)C[C@H]1C,-8.6,-5.0
N#C[C@@H]1[C@@H](c2ccc(C#CC3CCCC3)cc2)[C@@H](CO)N1S(=O)(=O)c1ccccc1,-28.5,-12.7
Cc1cccc(-c2ccc([C@@H]3[C@H]4CN(CCC(F)(F)F)CCCCN4[C@H]3CO)cc2)c1,?,/
COc1ccc(-c2cnc3c(c2)C(=O)N([C@H](C)CO)C[C@H](C)[C@H](CN(C)Cc2ccncc2)O3)cc1,1.0,-0.8
CC(C)CC#Cc1ccc2c(c1)O[C@@H](CN(C)C(=O)Cc1ccccn1)[C@H](C)CN([C@@H](C)CO)S2(=O)=O,-22.3,-13.4
CCC(=O)N1[C@@H]2c3cccc(=O)n3C[C@@H]2[C@@H](CO)[C@@H]1C(=O)NCc1ccccc1F,5.4,10.5
O=C(Nc1ccccc1)N1CCCCN2[C@H](CO)[C@H](c3ccc(C#Cc4cccnc4)cc3)[C@H]2C1,?,/
C[C@H](CO)N1C[C@H](C)[C@H](CN(C)Cc2ccc(C(=O)O)cc2)OCCCC[C@H](C)Oc2ccc(NC(=O)CCCN(C)C)cc2C1=O,2.6,-6.3
COCC(=O)N1CCCCN2[C@H](CO)[C@H](c3ccc(C#Cc4ccccc4)cc3)[C@H]2C1,-10.7,-19.6
C[C@@H]1CCCCO[C@@H](CN(C)S(=O)(=O)c2ccccc2)[C@H](C)CN([C@H](C)CO)C(=O)c2cc(NC(=O)Cc3ccccc3)ccc2O1,?,/
C[C@H](CO)N1C[C@H](C)[C@H](CN(C)S(C)(=O)=O)Oc2c(NC(=O)Nc3ccc4c(c3)OCO4)cccc2C1=O,6.2,-1.9

# Single records, from the list above.
# O=C(C1CCCC1)N1CC(=O)N2[C@@H](CO)[C@@H](c3ccc(C#CCc4ccccc4)cc3)[C@@H]2C1 reads Vaccinia stage = -6.5; Vaccinia stage Venus = -8.9
# C[C@@H]1CN([C@@H](C)CO)C(=O)c2cc(NC(=O)Nc3ccc4c(c3)OCO4)ccc2O[C@@H](C)CCCCO[C@@H]1CN(C)C(=O)Nc1ccccc1 reads Vaccinia stage = 17.7; Vaccinia stage Venus = 5.2

# (more compounds)
SMILES,Vaccinia stage,Vaccinia stage Venus
COc1ccc(-c2ccc(C3[C@@H]4CN(S(=O)(=O)c5cn(C)cn5)C[C@H]3N4)cc2)cc1 (stereo partly specified),9.7,3.4
CC=Cc1ccc2n(c1=O)C[C@@H]1[C@@H](CO)[C@H](C(=O)NCCc3cn(C)cn3)[C@H]2N1C(=O)C1CC1 (mixture of isomers),9.2,17.4
CC(C)NC(=O)N(C)C[C@@H]1Oc2cc(C3=CCCC3)ccc2S(=O)(=O)N([C@@H](C)CO)C[C@H]1C,3.6,10.0
OC[C@H]1[C@H](c2ccc(-c3ccccc3)cc2)[C@@H]2CN(CCC(F)(F)F)CCCCN12,?,/
CN1C(=O)c2cc(NC(=O)c3cnccn3)ccc2OC[C@@H]2O[C@H](CC(=O)NC3CCC3)CC[C@@H]21,7.3,14.2
COc1ccccc1S(=O)(=O)N[C@H]1CC[C@H](CCNC(=O)C2CC2)O[C@H]1CO,11.1,11.5
CCC(=O)Nc1ccc2c(c1)OC[C@H](C)N(Cc1ccccn1)C[C@@H](C)[C@H](OC)CN(C)C2=O,4.1,-0.9
CC(=O)N1CCCCN2[C@H](C1)[C@H](c1ccc(-c3ccc(F)cc3)cc1)[C@@H]2CO,?,/
C[C@H]1CCCCO[C@@H](CN(C)Cc2ccc(C(=O)O)cc2)[C@@H](C)CN([C@@H](C)CO)C(=O)c2cc(NC(=O)c3ccncc3)ccc2O1,24.7,10.9
C[C@H](CO)N1C[C@H](C)[C@H](CN(C)S(=O)(=O)c2cccs2)Oc2ccc(NC(=O)Cn3cnnn3)cc2C1=O,34.3,19.5
CO[C@@H]1CN(C)C(=O)c2cc(NC(=O)Nc3cccc(F)c3)ccc2OC[C@@H](C)N(C)C[C@H]1C,-11.2,-13.3
CO[C@H]1CN(C)C(=O)c2cc(NS(=O)(=O)c3cn(C)cn3)ccc2OC[C@H](C)N(CCC(F)(F)F)C[C@@H]1C,10.2,7.9
C[C@H]1CN([C@@H](C)CO)S(=O)(=O)c2ccc(C#CC(C)(C)O)cc2O[C@@H]1CN(C)C(=O)C1CCCCC1,-9.2,-11.1
O=C(C[C@H]1C[C@H]2c3cc(NC(=O)CC4CC4)ccc3O[C@H]2[C@H](CO)O1)NCc1ccc(-c2ccccc2)cc1,-3.0,-1.4
CC(C)NC(=O)Nc1ccc2c(c1)C(=O)N([C@@H](C)CO)C[C@H](C)[C@@H](CN(C)Cc1ccc(C(=O)O)cc1)OCCCC[C@H](C)O2,33.7,10.1
C[C@@H]1CN([C@H](C)CO)C(=O)c2cc(NC(=O)CCCN(C)C)ccc2O[C@@H](C)CCCCO[C@H]1CN(C)S(=O)(=O)c1ccc(Cl)cc1,11.2,4.2
O=C(NC1Cc2ccccc2C1)[C@@H]1[C@@H](CO)[C@@H]2Cn3c(cccc3=O)[C@H]1N2C(=O)CC1CC1,5.8,5.7
CC(=O)N1[C@H](CO)[C@H]2c3ccccc3N(S(=O)(=O)c3ccccc3F)C[C@H]21,2.0,0.6
C[C@H](CO)N1C[C@H](C)[C@H](CN(C)C(=O)NC2CCCC2)OCc2cn(nn2)CCCC1=O,6.9,12.7
C[C@H](CO)N1C[C@H](C)[C@H](CN(C)C(=O)c2ccccc2)OCCCC[C@H](C)Oc2ccc(NS(C)(=O)=O)cc2C1=O,9.6,-1.7
COc1ccc(NC(=O)Nc2ccc3c(c2)CC(=O)N([C@H](C)CO)C[C@H](C)[C@H](CN(C)Cc2ccncc2)O3)cc1,25.9,23.3
C[C@@H]1CN([C@@H](C)CO)C(=O)Cc2cc(NC(=O)CCC(F)(F)F)ccc2O[C@H]1CN(C)Cc1ccc(Cl)c(Cl)c1,?,/
C[C@@H]1CN([C@H](C)CO)C(=O)c2cccc(NC(=O)c3cnccn3)c2O[C@H]1CN(C)C(=O)Nc1ccc(F)cc1,9.7,3.2
O=C(C[C@@H]1C=C[C@H](NC(=O)c2ccncc2)[C@@H](CO)O1)NCc1ccncn1,9.0,8.9
COc1cccc(C(=O)Nc2ccc3c(c2)C(=O)N(C)C[C@H](OC)[C@@H](C)CN(C)[C@H](C)CO3)c1,-12.1,-3.4
C[C@H](CO)N1C[C@H](C)[C@@H](CN(C)Cc2ccc(C(=O)O)cc2)Oc2ccc(NS(=O)(=O)c3ccc(F)cc3)cc2CC1=O,19.5,22.3
O=C(N[C@@H]1CC[C@H](CCn2cc(C3CC3)nn2)O[C@@H]1CO)c1cccnc1,-2.2,-2.9
O=C(C[C@H]1CC[C@H](NC(=O)C2CC2)[C@@H](CO)O1)NCC1CC1,-5.4,-5.2
COc1ccc(NC(=O)N(C)C[C@H]2OCCCC[C@H](C)Oc3ccc(NC(=O)CCC(F)(F)F)cc3C(=O)N([C@@H](C)CO)C[C@@H]2C)cc1,-14.5,-12.9
CNC[C@H]1Oc2cc(C#Cc3ccccn3)ccc2S(=O)(=O)N([C@H](C)CO)C[C@@H]1C,14.2,20.1
CCCNC(=O)N(C)C[C@H]1Oc2ncc(-c3ccncc3)cc2C(=O)N([C@@H](C)CO)C[C@H]1C,11.5,10.2
C[C@@H]1CN([C@@H](C)CO)C(=O)c2cccc(NC(=O)Nc3ccccc3)c2O[C@H]1CN(C)C(=O)Nc1ccc(C(F)(F)F)cc1,-19.9,-10.7
Cc1ccc(S(=O)(=O)N[C@H]2CC[C@@H](CCn3cc(C4CC4)nn3)O[C@H]2CO)cc1,-13.2,-12.4
Cc1noc(C)c1S(=O)(=O)Nc1ccc2c(c1)C(=O)N([C@@H](C)CO)C[C@@H](C)[C@H](CN(C)C(=O)Nc1ccc(C(F)(F)F)cc1)OCCCC[C@@H](C)O2,?,/
C[C@@H]1CN([C@H](C)CO)C(=O)c2cc(NS(=O)(=O)c3ccc(F)cc3)ccc2O[C@H]1CN(C)Cc1ccc(Oc2ccccc2)cc1,-9.7,5.1

# By substructure: those above with a CF3 group
SMILES,Vaccinia stage,Vaccinia stage Venus
C[C@@H]1CN([C@H](C)CO)C(=O)c2cccc(NC(=O)Nc3cccc4ccccc34)c2O[C@@H]1CN(C)C(=O)Nc1ccc(C(F)(F)F)cc1,?,/
Cc1cccc(-c2ccc([C@@H]3[C@H]4CN(CCC(F)(F)F)CCCCN4[C@H]3CO)cc2)c1,?,/
OC[C@H]1[C@H](c2ccc(-c3ccccc3)cc2)[C@@H]2CN(CCC(F)(F)F)CCCCN12,?,/
CO[C@H]1CN(C)C(=O)c2cc(NS(=O)(=O)c3cn(C)cn3)ccc2OC[C@H](C)N(CCC(F)(F)F)C[C@@H]1C,10.2,7.9
C[C@@H]1CN([C@@H](C)CO)C(=O)Cc2cc(NC(=O)CCC(F)(F)F)ccc2O[C@H]1CN(C)Cc1ccc(Cl)c(Cl)c1,?,/
COc1ccc(NC(=O)N(C)C[C@H]2OCCCC[C@H](C)Oc3ccc(NC(=O)CCC(F)(F)F)cc3C(=O)N([C@@H](C)CO)C[C@@H]2C)cc1,-14.5,-12.9
C[C@@H]1CN([C@@H](C)CO)C(=O)c2cccc(NC(=O)Nc3ccccc3)c2O[C@H]1CN(C)C(=O)Nc1ccc(C(F)(F)F)cc1,-19.9,-10.7
Cc1noc(C)c1S(=O)(=O)Nc1ccc2c(c1)C(=O)N([C@@H](C)CO)C[C@@H](C)[C@H](CN(C)C(=O)Nc1ccc(C(F)(F)F)cc1)OCCCC[C@@H](C)O2,?,/

# An excerpt; count on the stated rates, not on these rows.
